FGF22 binding: shifts melting point of recombinant human FGF22. Q9HCT0. recombinant FGF22 thermal shift, SYPRO orange fluorescence; percent of sucrose octasulfate shift, DMSO zero. calls only at 9.99 µM. 340,000 tested, 1.5% active. AID 651658;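 active means melting point raised past a set limit in the mean and every replicate; three in four hits are not shown here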
Target sequence (Q9HCT0 whole entry, looked up): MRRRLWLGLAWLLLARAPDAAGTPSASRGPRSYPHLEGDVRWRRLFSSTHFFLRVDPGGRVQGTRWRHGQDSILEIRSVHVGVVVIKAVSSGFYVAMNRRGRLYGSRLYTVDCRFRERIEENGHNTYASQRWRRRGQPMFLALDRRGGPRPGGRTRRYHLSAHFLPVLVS
MLL AF4-AF9 inh: MLL-AF4/AF9 protein interaction inhibition; AlphaScreen, biotin-AF4 peptide binding to FLAG-AF9; 350,000 tested, 0.47% active; P42568; inhibition, % at 10 µM;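 active means every replicate reaching a set inhibition limit, whatever the replicate mean, cut at about 25% in these data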;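 further: 0% = plate neutral control median and 100% = total signal loss; the record names both 10 and 1 µM as test concentration; the first replicate is given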
Target sequence (P42568 whole entry, looked up): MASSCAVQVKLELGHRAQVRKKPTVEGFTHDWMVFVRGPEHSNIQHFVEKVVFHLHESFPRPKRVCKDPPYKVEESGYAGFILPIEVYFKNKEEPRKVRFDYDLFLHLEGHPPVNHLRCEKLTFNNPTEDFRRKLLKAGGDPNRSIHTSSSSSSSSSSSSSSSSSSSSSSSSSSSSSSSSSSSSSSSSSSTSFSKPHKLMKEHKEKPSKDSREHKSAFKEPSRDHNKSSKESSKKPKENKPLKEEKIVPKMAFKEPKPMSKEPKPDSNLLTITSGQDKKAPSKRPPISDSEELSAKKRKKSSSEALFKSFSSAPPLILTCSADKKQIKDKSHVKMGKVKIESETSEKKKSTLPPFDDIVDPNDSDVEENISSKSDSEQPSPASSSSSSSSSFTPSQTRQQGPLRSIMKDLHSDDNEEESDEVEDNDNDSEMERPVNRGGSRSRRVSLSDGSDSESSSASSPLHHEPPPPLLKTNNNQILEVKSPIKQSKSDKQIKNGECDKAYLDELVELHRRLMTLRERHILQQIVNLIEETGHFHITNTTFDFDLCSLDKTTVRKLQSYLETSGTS
Ecoli rRNA inh: selective bacterial rRNA inhibition in E. coli | E. coli WT GFP vs humanized-ribosome RFP mutants, fluorescence, 24 h; hits give low values; DMSO median 0, no signal -100 | GFP signal change (wild-type ribosome), % (no concentration beside the values) | 350,000 tested, 1.6% active;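 active means significant combined selectivity score with lowered wild-type GFP, culture density cut under 30%, mutant RFP and density less affected; inactive means any of these conditions unmet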; further: one replicate is shown; some compounds called inactive have numbers as strong as hits
Ecoli rRNA inh OD600: recorded beside Ecoli rRNA inh, whose call it bears; OD600 change, %; measured here: OD600 growth;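 optical density of the mix in the first replicate; 0 = DMSO median and -100 = no signal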
Ecoli rRNA inh RFP: also measured in Ecoli rRNA inh; calls as there; RFP signal change, %; measured here: RFP humanized mutant strains;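 first replicate; 0 = DMSO median and -100 = no signal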
* marks the source's active call; other numbers are inactive results; i = inactive. Only part of the results is shown; rates above refer to the full screens.

item	canonical_smiles	FGF22 binding	MLL AF4-AF9 inh	Ecoli rRNA inh	Ecoli rRNA inh OD600	Ecoli rRNA inh RFP
1	COCC#Cc1ccc2c(c1)O[C@@H](CN(C)Cc1ccncc1)[C@H](C)CN([C@H](C)CO)S2(=O)=O	i	0.8	-16	-13	2.0
2	O=C(C[C@H]1CC[C@@H](NS(=O)(=O)c2cccc(F)c2)[C@@H](CO)O1)N1CCCCC1	i	0.0	3	-5	-0.2
3	O=C(NCC(c1ccco1)N1CCCCC1)c1ccc(COc2ccc(Cl)cc2)cc1 (configuration not stated)	i	8.2	-47	-71	5.6
4	COc1ccc2c3c(n(C)c2c1)[C@H](CO)N(C(=O)c1cnccn1)CC31CN(C(C)=O)C1	i	0.2	9	15	-0.4
5	O=C(O)C[C@H]1C=C[C@H](NC(=O)Nc2cc(F)ccc2F)[C@@H](CO)O1	i	-1.4	-1	8	0.0
6	CCCNC(=O)N(C)C[C@@H]1Oc2cc(C3=CCCC3)ccc2S(=O)(=O)N([C@H](C)CO)C[C@@H]1C	i	-3.0	-6	-12	0.5
7	C[C@@H]1CN([C@@H](C)CO)C(=O)c2cc(NC(=O)CCCN(C)C)ccc2O[C@@H](C)CCCCO[C@@H]1CN(C)C(=O)Nc1ccc2c(c1)OCO2	i	0.6	2	7	-2.4
8	O=C(CCN1CCCCC1)NCC[C@@H]1CC[C@@H](NC(=O)C2CCCC2)[C@H](CO)O1	i	-9.6	4	8	-3.3
9	O=C(N[C@@H]1CC[C@H](CCn2cc(C3(O)CCCC3)nn2)O[C@@H]1CO)C1CCC1	i	-1.3	-1	3	-0.4
10	CCOc1ccc(C(=O)Nc2ccc(N3CCN(C(=O)c4ccco4)CC3)cc2)cc1Br	i	-3.2	9	16	1.0
11	C/C=C/c1ccc2c(c1)O[C@@H](CN(C)C(=O)NC1CCCCC1)[C@@H](C)CN([C@@H](C)CO)S2(=O)=O	i	-0.7	-9	-15	-3.8
12	CO[C@H](CN(C)S(=O)(=O)c1cn(C)cn1)[C@@H](C)CN(C(=O)Nc1ccc(F)cc1)[C@H](C)CO	i	-5.0	-5	-9	0.7
13	CC1=C(C(=O)N(C)C)CC(CC(=O)NC2CC2)C(=O)N1Cc1ccc(C(C)(C)C)cc1 (configuration not stated)	i	-2.7	9	3	6.9
14	CO[C@@H]1CC[C@H]2CCN(C)C(=O)[C@H](C)N(C)C(=O)c3cc(C#N)ccc3OC[C@@H]1O2	i	0.5	5	5	-4.3
15	CCC1(c2ccc(F)cc2)NC(=O)N(CC(=O)N2CCN(S(=O)(=O)c3ccc(C)cc3C)CC2)C1=O (configuration not stated)	i	-0.6	-19	-11	22
16	Oc1ccc(C=NN=Cc2ccco2)c(O)c1	i	3.9	-5	6	-0.3
17	O=S(=O)(N[C@H]1CC[C@@H](CCn2cc(-c3cccc(F)c3)nn2)O[C@H]1CO)c1ccc(Cl)cc1	i	-0.9	-25	-44	34
18	COc1cccc(CN(C)C[C@H]2OCc3ccccc3-c3c(n(C)c4ccccc34)C(=O)N([C@@H](C)CO)C[C@H]2C)c1	i	7.9	0	-6	3.8
19	Cc1cc(Cl)ccc1C(=O)C1CCCN(C(=O)c2ccc3c(c2)OCO3)C1 (configuration not stated)	i	-3.9	-26	-38	-7.6
20	CN1C(=O)c2cc(NC(=O)c3ccccc3)ccc2OC[C@@H]2O[C@H](CC(=O)NCC3CC3)CC[C@@H]21	i	-1.0	1	-1	0.6
21	O=C(C[C@@H]1CC[C@@H]2[C@H](COC[C@H](O)CN2C(=O)Nc2ccc(F)cc2)O1)NCC1CC1	i	1.7	1	2	-8.8
22	COC(=O)c1ccc(Cn2ccc(=O)[nH]c2=O)cc1	i	-5.2	13	1	4.0
23	O=C(Nc1ccc2c(c1)OCO2)N[C@H]1CC[C@H](CC(=O)N2CCN(c3ccccc3)CC2)O[C@@H]1CO	i	-0.6	1	5	-1.9
24	O=C(NCC[C@@H]1CC[C@@H](NS(=O)(=O)c2ccc(F)cc2)[C@H](CO)O1)Nc1ccc(Cl)cc1	i	10	-29	-64	40
25	Cc1ccc(CNC(=O)c2ccc(S(=O)(=O)N3CCCCCC3)cc2)cc1	i	-0.2	6	12	-1.6
26	COc1ccc(NC(=O)Nc2cccc3c2O[C@H](CN(C)C(=O)NC2CCCCC2)[C@H](C)CN([C@H](C)CO)C3=O)cc1	i	4.5	-2	1	-0.6
27	Cc1noc(C)c1NC(=O)Nc1ccc2c(c1)C(=O)N([C@H](C)CO)C[C@H](C)[C@@H](CN(C)C(=O)Nc1ccc(F)cc1)OCCCC[C@@H](C)O2	i	-2.4	-2	-3	-2.2
28	COc1ccc(S(=O)(=O)Nc2cccc3c2O[C@@H](CN(C)S(C)(=O)=O)[C@@H](C)CN([C@@H](C)CO)C3=O)cc1	i	-3.6	2	5	0.3
29	O=C(COC(=O)c1ccc(Br)o1)Nc1ccc(Br)cc1	i	5.6	7	14	-0.9
30	COc1ccc(NC(=O)Nc2ccc3c(c2)CC(=O)N([C@@H](C)CO)C[C@H](C)[C@H](CN(C)S(C)(=O)=O)O3)cc1	i	-3.5	4	7	-0.6

In another format: results already given.
| cpd | FGF22 binding | MLL AF4-AF9 inh | Ecoli rRNA inh | Ecoli rRNA inh OD600 | Ecoli rRNA inh RFP | SMILES |
| --- | --- | --- | --- | --- | --- | --- |
| 21 | i | 1.7 | 1 | 2 | -8.8 | O=C(C[C@@H]1CC[C@@H]2[C@H](COC[C@H](O)CN2C(=O)Nc2ccc(F)cc2)O1)NCC1CC1 |
| 22 | i | -5.2 | 13 | 1 | 4.0 | COC(=O)c1ccc(Cn2ccc(=O)[nH]c2=O)cc1 |
| 23 | i | -0.6 | 1 | 5 | -1.9 | O=C(Nc1ccc2c(c1)OCO2)N[C@H]1CC[C@H](CC(=O)N2CCN(c3ccccc3)CC2)O[C@@H]1CO |
| 24 | i | 10 | -29 | -64 | 40 | O=C(NCC[C@@H]1CC[C@@H](NS(=O)(=O)c2ccc(F)cc2)[C@H](CO)O1)Nc1ccc(Cl)cc1 |
| 25 | i | -0.2 | 6 | 12 | -1.6 | Cc1ccc(CNC(=O)c2ccc(S(=O)(=O)N3CCCCCC3)cc2)cc1 |

More results
item	canonical_smiles	FGF22 binding	MLL AF4-AF9 inh	Ecoli rRNA inh	Ecoli rRNA inh OD600	Ecoli rRNA inh RFP
31	CN(C)C(=O)C[C@H]1CC[C@H]2[C@@H](COc3ccc(NC(=O)Nc4cccc(Cl)c4)cc3C(=O)N2C)O1	i	2.1	-2	-11	6.1
32	C[C@@H]1CN([C@H](C)CO)C(=O)c2cccc(NS(=O)(=O)c3ccccc3)c2O[C@H]1CN(C)C(=O)NC1CCCCC1	i	0.1	-1	-7	-1.0
33	Cc1ccc(S(=O)(=O)N(C)C[C@H]2Oc3cc(C#Cc4ccccc4)ccc3S(=O)(=O)N([C@@H](C)CO)C[C@@H]2C)cc1	i	-3.2	2	10	-1.1
34	Cn1cnc([N+](=O)[O-])c1Sc1nc(N)nc2c1ncn2C1OC(CO)C(O)C1O (configuration not stated)	i	-1.8	2	9	-0.1
35	CCNC(=O)[C@H]1[C@H](CO)[C@H]2Cn3c(ccc(-c4ccc(F)cc4)c3=O)[C@@H]1N2C(C)=O	i	-2.0	2	0	2.3
36	C[C@H](CO)N1C[C@H](C)[C@H](CN(C)S(=O)(=O)c2ccc(F)cc2)Oc2ncc(-c3ccncc3)cc2C1=O	i	-7.9	1	-2	-0.5
37	C[C@H]1CN([C@@H](C)CO)C(=O)c2cc(C3=CCCCC3)cnc2O[C@@H]1CN(C)C(=O)Cc1cccnc1	i	1.6	-2	-1	-1.1
38	CCCc1cn(CC[C@H]2CC[C@H](NC(=O)Nc3ccccc3F)[C@H](CO)O2)nn1	i	-5.7	-1	-1	-1.3
39	CN(C)CC(=O)Nc1ccc2c(c1)[C@H]1C[C@H](CC(=O)NCc3ccncc3)O[C@@H](CO)[C@H]1O2	i	-2.9	3	1	0.4
40	Cc1cccc(COC[C@H](CC(C)C)N2CCN(C(=O)c3ccc(C(C)(C)C)cc3)CCC2=O)c1	i	5.3	2	-2	0.2
41	O=C(CSc1nc2nn(-c3ccccc3)c(=O)c-2c2n1CCCCC2)Nc1ccccc1[N+](=O)[O-]	i	7.8	-6	-5	1.7
42	C[C@H]1CN([C@@H](C)CO)C(=O)c2cc(NS(=O)(=O)c3ccccc3)ccc2O[C@@H]1CN(C)Cc1ccc(Oc2ccccc2)cc1	i	3.8	5	-9	7.5
43	C[C@@H]1CN([C@@H](C)CO)C(=O)c2cc(NC(=O)Nc3cccc4ccccc34)ccc2O[C@@H](C)CCCCO[C@@H]1CN(C)C(=O)CCCN(C)C	i	8.3	2	4	1.8
44	CO[C@H]1CN(C)C(=O)c2ccc(NS(C)(=O)=O)cc2OC[C@H](C)N(C(=O)CC2CC2)C[C@H]1C	i	-2.9	3	5	-0.1
45	CC(C)(C)c1ccc(CC(=O)N2CCC2(C)C(=O)NS(=O)(=O)c2ccc(C#N)cc2)cc1 (configuration not stated)	i	0.5	0	5	7.0
46	O=C1NC(=O)C2(CCCC2)N1	i	7.2	15	17	-0.9
47	O=S1(=O)CC(N2CC=CC2)CN1Cc1cn(Cc2ccccc2)nn1 (configuration not stated)	i	-1.1	11	10	-0.4
48	Cc1ccc(-c2cnc3c(c2)C(=O)N([C@H](C)CO)C[C@@H](C)[C@@H](CN(C)C(=O)CN(C)C)O3)cc1	i	-1.1	0	13	-0.6
49	COCCNC[C@H]1[C@H](c2ccccc2)[C@H](CO)N1c1nc(C)c(C)s1	i	0.7	0	-1	-0.4
50	C[C@@H]1CN([C@H](C)CO)C(=O)c2cccc(NS(=O)(=O)c3cccs3)c2O[C@@H]1CN(C)C	i	-3.2	0	5	0.5
51	Cc1ccc(-c2ccc([C@H]3[C@H]4CN(S(=O)(=O)c5ccccc5C)CCCCN4[C@H]3CO)cc2)cc1	i	-2.4	8	-5	0.9
52	CC(C)NC(=O)N(C)C[C@@H]1Oc2ccc(NC(=O)CCN3CCOCC3)cc2C(=O)N([C@H](C)CO)C[C@@H]1C	i	-2.3	1	7	-2.2
53	O=C(NC1CCCC1)N[C@@H]1CC[C@H](CC(=O)N2CCOCC2)O[C@@H]1CO	i	2.4	2	8	-1.6
54	C[C@@H]1CN([C@H](C)CO)S(=O)(=O)c2ccc(Br)cc2O[C@H]1CN(C)Cc1cccc(C(=O)O)c1	i	-0.8	-1	-2	-0.4
55	COc1c(C=O)c2c(c(OC)c1OC)-c1ccc(OC)c(=O)cc1C(NC(C)=O)CC2 (configuration not stated)	i	0.5	15	12	5.1
56	CC1(C(=O)NS(=O)(=O)c2ccc(Br)cc2)CCN1C(=O)C1CCCCC1 (configuration not stated)	i	-3.6	6	10	-0.8
57	Cc1nnc(SCC(=O)Nc2cc(S(=O)(=O)N3CCOCC3)ccc2C)s1	i	-0.2	1	5	-0.6
58	COc1ccccc1CNC(=O)C[C@H]1C=C[C@H](NC(C)=O)[C@H](CO)O1	i	-0.6	1	7	-1.8
59	CCCCc1c(-c2ccccc2F)ncn1CCc1ccccc1OC	i	6.6	-63	-77	-18
60	Oc1ccc2ccc(Cl)cc2c1	i	-2.7	-12	-4	-5.2
61	O=C(CC1CC1)Nc1ccc2c(c1)[C@H]1C[C@H](CC(=O)NC3CCCCC3)O[C@@H](CO)[C@H]1O2	i	1.2	3	6	-3.3
62	CC(OC(=O)C1COc2ccccc2O1)C(=O)c1ccccc1 (configuration not stated)	i	-6.3	10	14	0.9
63	COc1ccc(CNC(=O)Nc2nnc([C@H]3C[C@H](O)[C@@H](CO)O3)s2)cc1	i	-0.7	16	20	-2.2
64	C[C@H](CO)N1C[C@H](C)[C@@H](CN(C)C(=O)CCN2CCCCC2)Oc2ncc(C#Cc3ccccc3)cc2C1=O	i	11	6	0	0.8
65	COCC(=O)Nc1ccc2c(c1)[C@H]1C[C@H](CC(=O)O)O[C@H](CO)[C@H]1O2	i	-1.9	-1	-3	-2.3
66	CN(C(=O)c1cccc(NC(=O)Cc2ccc(NC(=O)C3CCCN(C(=O)CCc4ccccc4)C3)cc2)c1)C1CCCCC1 (configuration not stated)	i	-2.2	2	0	3.0
67	O=C(C[C@@H]1C[C@@H]2c3cc(NC(=O)C4CCOCC4)ccc3O[C@@H]2[C@H](CO)O1)NCc1ccc(Cl)cc1	i	-1.9	1	-2	-1.4
68	CCO/C(C)=N/Oc1cccc(N(C)C)c1	i	12	3	0	16
69	COC1OC2COC(c3ccccc3)OC2C2OC(c3ccccc3)OC12 (configuration not stated)	i	-1.5	2	13	-3.1
70	COc1ccc(NC(=O)N(C)C[C@H]2Oc3ccc(NC(=O)NC4CCCCC4)cc3C(=O)N([C@@H](C)CO)C[C@H]2C)cc1	i	-2.1	-2	-20	-1.8
71	COc1ccc(S(=O)(=O)N2CCN(CC(=O)N3CCNC3=O)CC2)cc1OC	i	-2.5	4	0	0.9
72	COc1ccc2[nH]c3c(c2c1)CCN1C(=O)C(CC(=O)NCCC2=CCCCC2)C[C@H](C(=O)N2CCCCC2)[C@@]31CCc1ccccc1 (some centres not stated)	i	-3.3	2	-2	-5.4

Compound activity: PubChem, Broad Institute
